KCNQ2 enhance = potentiators of rat KCNQ2 potassium channel; O88943; CHO-K1 KCNQ2, FluxOR thallium flux fluorescence; active compounds read high; B-score at 10 µM; 310,000 compounds, 0.54% hits;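 active = fluorescence ratio B-score at least 3 SD of library B-scores, with initial fluorescence B-score within 3 SD, cut at about 5.3 in these data; same plate scores as AID 2156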;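 note: B-score of peak minus minimum over baseline fluorescence ratio after K+ and Tl+ stimulus; positive B-score means potentiation of KCNQ2 with more thallium influx and brighter signal; only the inactives scoring about 0 or higher are listed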
Target sequence (O88943 whole entry, looked up): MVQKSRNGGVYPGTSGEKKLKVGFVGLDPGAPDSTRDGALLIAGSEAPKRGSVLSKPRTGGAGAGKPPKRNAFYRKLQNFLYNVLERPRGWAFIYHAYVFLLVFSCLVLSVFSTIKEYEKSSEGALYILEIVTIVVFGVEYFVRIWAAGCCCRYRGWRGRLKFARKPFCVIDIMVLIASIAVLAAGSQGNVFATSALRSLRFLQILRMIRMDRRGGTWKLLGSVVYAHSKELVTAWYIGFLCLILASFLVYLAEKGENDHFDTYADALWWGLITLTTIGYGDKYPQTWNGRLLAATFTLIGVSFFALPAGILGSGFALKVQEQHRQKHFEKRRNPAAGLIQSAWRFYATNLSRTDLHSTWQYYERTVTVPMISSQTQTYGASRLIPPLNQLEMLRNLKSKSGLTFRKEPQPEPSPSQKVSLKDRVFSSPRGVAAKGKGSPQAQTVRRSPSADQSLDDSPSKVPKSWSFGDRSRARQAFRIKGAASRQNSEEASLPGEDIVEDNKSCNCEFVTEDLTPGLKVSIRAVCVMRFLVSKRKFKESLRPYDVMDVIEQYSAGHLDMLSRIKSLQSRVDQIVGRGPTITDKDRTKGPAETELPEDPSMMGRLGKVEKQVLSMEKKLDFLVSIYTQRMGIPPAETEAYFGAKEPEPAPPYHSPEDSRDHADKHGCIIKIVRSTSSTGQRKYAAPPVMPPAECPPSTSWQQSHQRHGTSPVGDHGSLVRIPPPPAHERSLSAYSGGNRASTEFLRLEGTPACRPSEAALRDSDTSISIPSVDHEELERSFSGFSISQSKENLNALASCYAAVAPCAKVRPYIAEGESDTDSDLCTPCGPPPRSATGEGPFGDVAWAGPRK
KCNQ2 enhance baseline = second read-out of KCNQ2 enhance, no call of its own (marks repeat the call); B-score; compound at 10 µM; measured here: initial fluorescence intensity artifact check;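 brightness before thallium and not channel activity; 0 = typical well and far values either way flag optical interference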
The depositor's hits bear a star.

SMILES	KCNQ2 enhance	KCNQ2 enhance baseline
Cc1nn(CC(=O)Nc2ccc(F)cc2)c(=O)c2ccccc12	0.9	-0.07
Cc1nnc(SCC(=O)N2CCC(c3noc4ccc(F)cc34)CC2)s1	0.19	-0.05
CN(C)CCN1C(=O)C(O)=C(C(=O)c2cc3ccccc3o2)C1c1ccccn1 (stereo unspecified)	0.64	1.4
Cc1ccccc1Cn1c(C)nc2ccccc21	3.7	-0.82
CCN(CC)S(=O)(=O)c1ccc(S(=O)(=O)Nc2ccc3c(c2)oc2ccccc23)cc1	0.05	-1.2
COC(=O)c1ccccc1NC(=O)C(C)NS(=O)(=O)c1ccc(OC)cc1 (stereo unspecified)	0.66	-0.06
Cc1nc([N+](=O)[O-])c(C(=O)OCc2ccccc2C#N)n1C	2	3.2
CCN(Cc1ccncc1)C(=S)Nc1ccc(Cl)cc1	2.1	1.4
CCOC(=O)c1cc2c(N)c(C(=O)c3cc(C#N)c(SC)nc3C)sc2nc1C	0.91	0.8
CC(=O)Nc1cccc(C(=O)N/N=C/c2ccccc2F)c1	2.1	0.95
Cc1nc2c(cnn2-c2ccccc2)c(=O)n1/N=C/c1ccccc1	0.21	-2.3
COc1ccc(-c2nnc(SCc3nnc(-c4ccc(Cl)cc4)o3)n2-c2ccccc2)cc1	0.62	-0.86
COc1ccc(C(=O)N2CCN(C)C(=O)[C@@H]2C)cc1OC1CCN(C(C)C)CC1	0.12	-0.67
COc1ccccc1N(CCC#N)C(=O)CSc1ccc2c(c1)OCCO2	0.22	0.65
O=C1[C@H]2[C@@H](c3ccc(Cl)cc3)N3C(=O)N(c4cccc(Cl)c4)C(=O)[C@@]3(Cc3ccc(Cl)cc3)[C@H]2C(=O)N1C1CCCCC1	0.18	0.06
Cc1ccc(CSCC(=O)N(C)CC(=O)Nc2ccc(C)cc2)cc1	2.8	-1.5
O=C(Nc1ccc(Cl)cc1N1CCOCC1)C1CCCO1 (stereo unspecified)	0.1	-0.16
COc1ccc(N2CC(C(=O)N[C@@H](CC(C)C)C(=O)NC3CCCCC3)CC2=O)cc1 (stereo partly specified)	0.57	0
CCCn1nc(NC(=O)C2CCCO2)c2cc3cccc(C)c3nc21 (stereo unspecified)	1.5	1.6
CN1CCN(CCCNC(=O)c2ccc(/C=C3\Sc4ccccc4N(Cc4ccc(F)cc4)C3=O)cc2)CC1	0.17	-0.1
O=C(CN1CCN(c2ccccn2)CC1)NC1CCCCC1	0.81	0.21
O=C(COC(=O)CN1C(=O)C2CCCCC2C1=O)Nc1ccc(S(=O)(=O)N2CCOCC2)cc1 (stereo unspecified)	0.46	-1.6
CCCCC(=O)Nc1ccc2c(c1)nc(CCN1CCN(C)CC1)n2C	1.7	-0.8
COc1ccc(S(=O)(=O)N2CCC(NC(=O)N3CCOCC3)CC2)cc1	1.3	-0.04
Cc1noc(C)c1COC(=O)C1CC(O)CN1S(=O)(=O)c1ccc(Cl)cc1 (stereo unspecified)	1.1	-1.6

An excerpt from above in order of their number in KCNQ2 enhance baseline, ascending.
SMILES	KCNQ2 enhance	KCNQ2 enhance baseline
Cc1nc2c(cnn2-c2ccccc2)c(=O)n1/N=C/c1ccccc1	0.21	-2.3
CCN(CC)S(=O)(=O)c1ccc(S(=O)(=O)Nc2ccc3c(c2)oc2ccccc23)cc1	0.05	-1.2
O=C(Nc1ccc(Cl)cc1N1CCOCC1)C1CCCO1 (stereo unspecified)	0.1	-0.16
COC(=O)c1ccccc1NC(=O)C(C)NS(=O)(=O)c1ccc(OC)cc1 (stereo unspecified)	0.66	-0.06
COc1ccc(N2CC(C(=O)N[C@@H](CC(C)C)C(=O)NC3CCCCC3)CC2=O)cc1 (stereo partly specified)	0.57	0

Structures above containing an aryl thioether with sulfur outside any ring:
SMILES	KCNQ2 enhance	KCNQ2 enhance baseline
Cc1nnc(SCC(=O)N2CCC(c3noc4ccc(F)cc34)CC2)s1	0.19	-0.05
CCOC(=O)c1cc2c(N)c(C(=O)c3cc(C#N)c(SC)nc3C)sc2nc1C	0.91	0.8
COc1ccc(-c2nnc(SCc3nnc(-c4ccc(Cl)cc4)o3)n2-c2ccccc2)cc1	0.62	-0.86
COc1ccccc1N(CCC#N)C(=O)CSc1ccc2c(c1)OCCO2	0.22	0.65

Remaining list, next part
SMILES	KCNQ2 enhance	KCNQ2 enhance baseline
CCn1c(C)[n+](CCCS(=O)(=O)[O-])c2cc(Cl)c(Cl)cc21	0.55	-0.94
CC(C)(C)c1ccc(Cc2n[nH]c(=S)[nH]c2=O)cc1	0.9	-0.07
O=C(Nc1cccc(C(=O)O)c1)Nc1ccc2c(c1)OCO2	0.1	1.1
O=C(/C=C/c1c(Cl)nc2ccccn12)Nc1ccc(F)cc1	0.13	-0.99
COc1ccc(/C=C/C(=O)OCC(=O)NC(=O)NC(C)(C)C)cc1	0.2	0.27
CCn1cc(CNC(=O)/C=C/c2ccc([N+](=O)[O-])cc2)cn1	0.75	1.8
Cc1ccc(/C=C/C(=O)NC2CCCCCCC2)o1	1.7	0.24
COc1ccc(C(=O)N[C@H](C(=O)OCC(=O)NC(=O)c2cccn2C)C(C)C)cc1	0.17	1.4
O=[N+]([O-])c1ccc(N2CCN(c3cccc(Cl)c3)CC2)nc1	0.89	-0.11
COc1ccccc1NC(=S)NC(=O)Cc1ccccc1	2.9	-1.3
COC(=O)C1=C(Cn2cnc3ccccc32)NC(=O)NC1c1cc(C)ccc1C (stereo unspecified)	1.1	0.53
COc1cc(C2NC(=O)NC(C)=C2C(=O)OC2CCCCC2)cc(Cl)c1O (stereo unspecified)	2.1	-0.1
Cc1ncc([N+](=O)[O-])n1Cc1ccc(F)cc1	0.13	0.5
COc1ccc(S(=O)(=O)N(C)CC(=O)N2CCN(c3ccc(F)cc3)CC2)cc1OC	0.5	0.83
O=C(c1cc2cc(Cl)ccc2oc1=O)N1CCCCCCC1	0.44	-0.61
CC1CCN(S(=O)(=O)c2ccc(NC(=O)CN3C(=O)NC(C)(c4ccccc4)C3=O)cc2)CC1 (stereo unspecified)	0.96	0.02
COc1ccc(NC(=O)Cn2cnc3ccccc3c2=O)cc1OC	0.81	-0.4
Cc1ccc2oc(-c3ccco3)cc(=O)c2c1	1.4	-0.06
COc1ccc(Cc2nnc(N/N=C/c3ccc(N(C)C)cc3)[nH]c2=O)cc1OC	0.35	0.48
COc1ccc(/C=N/NC(=O)Cn2c(Cc3ccc(OC)c(OC)c3)nc3ccccc32)cc1OC	0.01	-0.61
Fc1cccc(NC(=S)N2CCCC2)c1	2.1	-0.09
CC(C)C(C(=O)Nc1ccc(S(=O)(=O)N2CCOCC2)cc1)N1C(=O)c2ccccc2C1=O (stereo unspecified)	1.3	-0.93
Cc1onc(-c2c(Cl)cccc2Cl)c1C(=O)NCC1CCCO1 (stereo unspecified)	0.47	0.61
CCc1ccccc1NC(=S)N(CCN(C)C)Cc1cccs1	0.45	0.97
CCn1c(SCC(=O)Nc2ccc(C)cc2)nc2nc3c(cc2c1=O)COC(C)(C)C3	1.3	1.2

More records follow:
SMILES	KCNQ2 enhance	KCNQ2 enhance baseline
O=C(c1ccc(Cl)cc1)N1CCN(C(=O)C2CCCCC2)CC1	1.6	1.1
Cc1ccc(NC(=S)NCCc2ccc(Cl)cc2)c(C)c1	0.26	-0.06
C=C(C)COc1ccc(-c2[nH]ncc2Oc2ccc(OC)cc2)c(O)c1	1	0.05
CCOCCCNCc1ccc(OCCC(C)C)c(OC)c1	0.2	-0.79
Cc1ccc(-n2ncc3c2CC(C)(C)CC3NC(=O)c2c(C)noc2C)cc1 (stereo unspecified)	0.57	-1.4
CC(=O)Nc1cccc(NC(=O)CSc2nnc3ccc(-c4cccnc4)nn23)c1	0.44	0.57
Cn1nccc1C(=O)Nc1ccccc1C(=O)O	0.78	1.6
COc1ccc(NC(=O)CN2C(=O)NC3(CCCC3)C2=O)cc1Cl	0.33	1.4
CC(CCCC(C)(C)O)CC1C2=C(CCCC2=O)OC2=C1C(=O)CCC2 (stereo unspecified)	1.4	0.73
CCOC(=O)CSc1nnc(CNC(=O)c2ccccc2OC)n1-c1ccc(OC)cc1	1.4	-0.15
CC(C)CC(=O)NS(=O)(=O)c1ccc(NC(=O)c2ccco2)cc1	0.4	-0.58
Clc1ccccc1-c1ccc(/C=N/Nc2nncc(-c3ccccc3)n2)o1	0.05	1.4
COC(=O)c1c(NS(=O)(=O)Cc2ccccc2)sc2c1CCCC2	13*	0.01*
COc1ccc(C)cc1S(=O)(=O)NC(C)C(=O)Nc1ccc2c(c1)OCO2 (stereo unspecified)	1.1	-0.86
Cc1ccc(OCCC(=O)OCC(=O)Nc2c(C)nn(-c3ccccc3)c2C)cc1	1.8	0.76
COC(=O)c1cc(NC(=O)c2ccc(F)cc2)cc(C(=O)OC)c1	0.2	1.5
O=C(Nc1ccccc1N1CCN(C(=O)c2ccccc2)CC1)c1ccco1	1.1	-1.2
O=C(NC1CCCCC1)c1ccc(S(=O)(=O)N2CCCCC2)cc1	0.62	0.96
Cc1cc(C)c(NC(=O)CNC(=O)c2ccccc2OCc2c(C)noc2C)c(C)c1	0.16	0.89
CCOC(=O)CN1C(=O)NC2NC(=O)NC21 (stereo unspecified)	0.36	0.12
O=C(CSc1nnc(-c2ccccc2)o1)N1CCN(c2ccccc2)CC1	0.43	3.3
O=C(Nc1ccc(Cc2ccncc2)cc1)c1cc(F)c(F)cc1Cl	0.37	-0.3
O=C(Nc1ccc(Br)cc1)N1CCCCC1	1.3	-0.19
CCOC(=O)N1C2C=C(C)[C@@H]2[C@@H]2CC(=O)N21 (stereo partly specified)	0.2	-0.25
CCN(CC)S(=O)(=O)c1ccc(O)c(NC(=O)c2cc(-c3cc(OC)c(OC)c(OC)c3)nc3ccccc23)c1	0.54	-2

Further entries
SMILES	KCNQ2 enhance	KCNQ2 enhance baseline
Cc1ccccc1NC(=S)N1CCCC(c2nc3ccccc3[nH]2)C1 (stereo unspecified)	0.37	-0.36
O=C(O)/C=C/C(=O)NNc1ccc([N+](=O)[O-])cc1	0.69	-0.63
O=C(COC(=O)c1cccc(S(=O)(=O)Nc2ccc(F)cc2)c1)NCCN1C(=O)CSC1=O	0.85	1.2
NS(=O)(=O)c1ccc(NC(=O)CSc2ncnc3ccccc23)cc1	0.62	-0.57
CSCC[C@H](NS(=O)(=O)c1ccc(C(C)=O)cc1)c1nnc2ccccn12	0.02	-0.35
COc1ccc(-n2c(=O)c(NC(=O)c3ccccc3)c3n(c2=S)CCCCC3)cc1	0.64	-1.7
CCCC(CCC(=O)Nc1cccc([N+](=O)[O-])c1)C(=O)O (stereo unspecified)	0.91	0.33
CN(C)c1ccc(C(=O)NCCCSc2ccccc2)cc1	2	0.48
c1nc(N2CCCC2)c2[nH]cnc2n1	0.16	-0.03
CCNC(=O)C1(c2ccccc2)CCCC1	0.86	-0.09
CC(=O)c1sc(=S)n(Cc2ccccc2)c1C	1.7	0.48
O=C1NCCCC1C(=O)NCCN1C(=O)CCC1=O (stereo unspecified)	0.07	-2
COc1ccc(CCNC(=O)c2cc(S(=O)(=O)N(C)C)ccc2N2CCCC2)cc1OC	0.75	-1.1
Clc1ccc(-c2cc3ccccc3[nH]2)cc1	1.8	-2.7
CNC(=S)NNC(=O)c1ccc2c(c1)OCO2	0.96	1.9
Cc1cc(NC(=O)CCC(=O)N(CC(=O)NC2CCCC2)c2ccccc2)no1	0.43	1.1
CN1C(c2ccccc2)=NO[C@]1(C)c1ccccc1	0.85	-0.54
O=[N+]([O-])c1ccc(NCCCO)c(C(F)(F)F)c1	0.95	0.35
CSc1ccccc1N1CCN(C(=O)Nc2ccc3c(c2)NC(=O)CO3)CC1	0.15	-0.92
O=C1CSC(c2ccc(F)c(F)c2)N1c1ccccc1F (stereo unspecified)	1.1	-0.59
CN1C(=O)[C@@H]2[C@@H]3C[C@@H]([C@H]4ON=C(c5ccccc5OCC#N)[C@@H]34)[C@@H]2C1=O	0.41	-2.9
OC(CN1CCN(Cc2ccccc2)CC1)c1ccc(Br)cc1 (stereo unspecified)	1.6	0.16
N=P(N1CCOCC1)(N1CCOCC1)C12CC3CC(CC(C3)C1)C2	0.02	0.35
O=C(O)c1nn(-c2ccccc2)c(-c2ccccc2)c1C(=O)c1ccccc1	0.94	-1.1
O=C(NCc1ccco1)C(=O)NCC1OCCN1C(=O)c1ccc(Cl)cc1 (stereo unspecified)	0.76	0.71

Other entries follow:
SMILES	KCNQ2 enhance	KCNQ2 enhance baseline
Cc1ccc(-n2nc(CN3CCOCC3)c(-c3ccccc3)c2N)c(C)c1	0.31	1.2
O=C(CN1C(=O)NC2(CCCCCC2)C1=O)N1CCN(S(=O)(=O)c2ccc(Cl)cc2)CC1	1.1	-1.2
COc1ccc(OC)c(/C=N/NC(=O)Cc2nc3ccccc3[nH]2)c1	0.69	-0.42
COc1ccc2c(c1)CCCN2C(N)=Nc1ccc(Cl)cc1	1.1	0.43
Nn1c(SCC(=O)NC2CCCCC2)nnc1C1CC1	0.39	1.5
CSc1nnc(-c2ccc(S(=O)(=O)N3CCOCC3)cc2)n1C	2.6	-0.59
COc1ccc(OC)c(NC(=O)Cn2cnc3c(cnn3-c3ccccc3)c2=O)c1	0.96	-1.1
COc1ccccc1NC(=O)CNC(=O)Cn1c(C)cc2ccccc2c1=O	0.05	-0.25
C=CCc1ccc(OCCCCN2CCC(C)CC2)c(OC)c1	0.15	0.44
Cc1nc2sc(C(c3ccc(C(C)C)cc3)N3CCN(CCO)CC3)c(O)n2n1 (stereo unspecified)	0.48	-0.17
CN(c1ccccc1)S(=O)(=O)c1ccc(Cl)c(C(=O)OCC(=O)NCc2ccco2)c1	9.5*	1.4*
C=C1CCN([C@H](C(=O)NCc2cc(OC)c(OC)c(OC)c2)C(C)C)S(=O)(=O)c2ccccc21	1.5	0.44
O=C(COC(=O)CCc1nc2ccccc2s1)NCc1ccco1	0.83	-1.6
Cc1cc([N+](=O)[O-])ccc1NC(=O)c1cncc(Br)c1	0.77	-1.6
Cc1cc(C)c2[nH]c(O)c(N=Nc3ccc(C(=O)O)cc3)c2c1	2.7	-1.4
Cc1ccc(O)c(NC(=S)NC(=O)C(C)C)c1	1.2	-0.01

A portion of the library, so the mix of outcomes need not match the whole.
